# Screening data from PubChem.
# PrP 5UTR inh = inhibition of PrP 5' UTR reporter expression. cell-based PrP 5' UTR mRNA reporter, plate reader. inhibition, % (no concentration beside the values). 340,000 tested, 0.35% active;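 active means every replicate at 50% or more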;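 further: 0 = median of the neutral control wells; tested in H4 reporter cells; numbers are from one replicate; inactives centre near -14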
# Autofluor counter = flagged as autofluorescent in microsphere protease counterscreen. compound autofluorescence counterscreen, microsphere flow cytometry; stronger effect = higher value. fluorescence intensity (test concentration not listed). 360,000 tested, 3.1% active. AID 624483;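 active means at least 3 SD above the mean of all compounds, about 16000 in these data; inconclusive means too few beads counted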;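 further: 100 nL of 1 mM stock went into each well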
# Mtb hypoxia rep = PubChem AID 1159583. fluorescence inhibition, % (concentration not given with the values). M. tuberculosis hypoxia-regulated fluorescent reporter, fluorescence. 300,000 tested, 0.1% active;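 active means 35 to 45% if threefold the growth effect, above 45% if 1.5-fold the growth effect; inactive means the rest, general growth blockers included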;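 further: wells of about 50 µL received 100 nL stock; 0% = vehicle wells and 100% = reference inhibitor wells; whole bacteria with a GFP reporter of the hypoxia response; strong numbers were not always called active; many hits fall short of the cut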
# Sa ugtP lethal = growth inhibition of ugtP-null S. aureus, primary screen, RN4220 ugtP deletion, OD600; 16 h; some inactives read as strong as hits; growth inhibition, % (no concentration beside the values); 330,000 tested, 0.54% active; AID 1259309, 2017;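 active means z-score under -3 and OD600 up to 0.15 on both plates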;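 further: plate controls were untreated wells for no effect and antibiotic for full effect; wells of about 80 µL received 100 nL stock; the first replicate is given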
# Sa RN4220 lethal = growth inhibition of S. aureus RN4220, primary screen, OD600 | 16 h | inhibition, % (no concentration beside the values) | 330,000 tested, 0.33% active | AID 1259311, 2017;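 active means z-score of -3 or lower and OD600 up to 0.18 on both plates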;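 further: plate controls were untreated cells for no effect and reference antibiotic for full effect; stock transfer was 100 nL into about 80 µL; one replicate is shown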
# BJeLR viability = MLPCN primary cell-based screen for lethality selective to Ras in HRASV12 cells | BJeLR (HRASV12) viability, CellTiter-Glo ATP luminescence, 48 h; reference of the scale not given here | inhibition, % (concentration not given with the values) | 300,000 tested, 0.17% active | AID 1554, 2009;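 active means replicate mean above 50%; inconclusive means above 50% but judged a plate artefact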;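 further: 50 nL library stock added to about 25 µL; numbers are from one replicate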
# Mtb hypoxia rep growth = recorded beside Mtb hypoxia rep, whose call it bears; growth inhibition, %; measured here: M. tuberculosis growth (absorbance);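 0% = vehicle and 100% = reference antibiotic; read after six days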
# * hit, by the source's call; u = inconclusive; x = not tested or not shown; & = joins results of further samples.
SMILES	PrP 5UTR inh	Autofluor counter	Mtb hypoxia rep	Mtb hypoxia rep growth	Sa ugtP lethal	Sa RN4220 lethal	BJeLR viability
Cc1ccc(S(=O)(=O)NCCC(=O)NC(C)c2ccccc2)cc1 (centres undefined)	-24	5892	16	4	7	-0.1	10
CC1COC(=O)C(Cc2ccc(F)cc2)CCC=CCC(CC(=O)NC(CO)Cc2ccccc2)C(=O)N1 (centres undefined)	x	x	4&-6	14&10	4&0	3.2&10	x
Cc1ccc(NC2CCCN(C(=O)c3ccc4[nH]ccc4c3)C2)cc1C (centres undefined)	-56	6329	3	7	0	2.9	-3
OC(CNCC1COc2ccccc2O1)COc1ccccc1F (centres undefined)	-24	4148	11	0	-2	3.4	-11
CC(=O)Nc1nc(=S)n(-c2ccccc2)[nH]1	-25	22526*	8	6	0	1.9	1
CCOc1ccc(NC(=S)N2CCC(NC(=O)c3ccccc3C)CC2)cc1	-25	4227	7	11	14	3.3	0
CC(=O)c1ccccc1NC(=O)COC(=O)CSCC(=O)Nc1cc(C)on1	-21	4960	9	5	6	4.0	13
OCCC1CN(Cc2nc3ccccc3s2)CCN1C1CCCCC1 (centres undefined)	3	2160	4	-1	13	-1.6	5
CSc1nc2ccccc2c(=O)n1-c1cccnc1	-22	5467	5	2	-3	3.0	-3
COc1ccc(OC)c(C=NNC2=NS(=O)(=O)c3ccccc32)c1	x	x	12	3	6	0.0	x
Cc1cccc(C)c1OCC(=O)NN=Cc1ccncc1	x	x	8	4	6	2.3	x
CC(=O)Nc1c(C)ccc(S(N)(=O)=O)c1C	-11	2382	x	x	x	x	0
COc1ncnc2c1oc1nc(C(C)C)c3c(c12)CC(C)(C)OC3	9	8652	3	8	4	5.2	6
CC1CC(C)CN(C(=O)c2ccc(CNc3c(N4CCCC4)c(=O)c3=O)cc2)C1 (centres undefined)	-22	5735	x	x	3	2.7	7
CC(C)(C)OC(=O)N1CCC[C@H]1C(=O)NN=Cc1cccc2cccnc12	x	x	20	7	2	0.5	x

# Retrieved by compound from the entries so far:
SMILES	PrP 5UTR inh	Autofluor counter	Mtb hypoxia rep	Mtb hypoxia rep growth	Sa ugtP lethal	Sa RN4220 lethal	BJeLR viability
CC(=O)Nc1c(C)ccc(S(N)(=O)=O)c1C	-11	2382	x	x	x	x	0
CC1COC(=O)C(Cc2ccc(F)cc2)CCC=CCC(CC(=O)NC(CO)Cc2ccccc2)C(=O)N1 (centres undefined)	x	x	4&-6	14&10	4&0	3.2&10	x

# Next records.
SMILES	PrP 5UTR inh	Autofluor counter	Mtb hypoxia rep	Mtb hypoxia rep growth	Sa ugtP lethal	Sa RN4220 lethal	BJeLR viability
COc1ccc(NC(=O)CN2CCC(C(N)=O)(N3CCCCC3)CC2)cc1	-30	11456	3	-4	2	0.7	0
CCOc1ccc(S(=O)(=O)N(CC(=O)NCc2cccnc2)c2ccc(F)cc2)cc1	-24	3117	21	5	5	1.6	-10
O=C(CCN1C(=O)/C(=C/c2ccccc2)SC1=S)NC1CCS(=O)(=O)C1 (centres undefined)	-13	6089	4	5	2	5.8	2
CCOc1ccc(N(CC(=O)NCCc2ccc(C)cc2)S(=O)(=O)c2c(C)noc2C)cc1	-5	5526	2	1	5	2.1	-10
S=C(Nc1ccccc1)Nc1nccs1	-37	3503	20	18	1	2.5	3
O=C(CCC(=O)N(Cc1ccco1)C(C(=O)NC1CCCC1)c1ccncc1)Nc1cccnc1 (centres undefined)	-26	6778	13	12	5	5.7	-5
O=C(O)C1C2CCC(C2)C1C(=O)NCc1ccco1 (centres undefined)	-2	3099	x	x	-2	5.4	4
O=C1CCCN1CCCNc1nc2c(S(=O)(=O)c3ccccc3)nnn2c2ccc(Cl)cc12	-16	4839	10	3	3	1.8	12
CC(=O)c1cc(-c2ccc(F)cc2)n(CCC(=O)Nc2cccnc2)c1C	-9	2247	-8	-4	5	6.6	-2
CCc1nnc(NC(=O)CCC(=O)O)s1	-14	6190	-5	-2	-10	-2.7	-1
CCc1nnc(NC(=O)CSc2nnc(Cc3ccccc3)o2)s1	-7	10349	-3	-4	3	3.3	1
O=C(COc1ccccc1Br)Nc1ccc2c(c1)OCCCO2	-79	4142	11	-2	1	3.1	-12
CCn1nccc1C(=O)Nc1ccc(Cl)cn1	-28	3636	x	x	7	4.6	1
N#C/C(=C(\O)c1cc(Cl)sc1Cl)c1nc2ccccc2[nH]1	-13	5209	x	x	x	x	2
CNc1c([N+](=O)[O-])cnn1-c1ccccn1	-6	4416	11	1	-3	-0.6	14
COc1cc(C(=O)NCC2(N(C)C)CCCCC2)ccc1OCc1ccccc1	-13	6331	-13	3	6	2.0	-5
CN(C)c1ccc(NC(=O)CN2CCc3ccccc3C2)cc1	-19	3577	3	-7	-4	-0.8	-2
NC(=O)C1CCCN(CC(O)COCc2ccc(Cl)cc2)C1 (centres undefined)	-21	2961	-5	9	0	-0.6	-2
O=C1OCC(CO)(CO)N=C1NNc1cc(Cl)ccc1Cl	-15	8108	-1	-5	0	-0.8	-2
COc1cc(/C=C2\SC(=S)N(NS(=O)(=O)c3ccc(C)cc3)C2=O)ccc1O	-9	3775	12	-1	71	86*	8
O=C(Cn1cnc2c(nnn2Cc2ccccc2)c1=O)NCc1ccco1	-11	5973	2	10	2	5.9	-6
Cc1cccc(Nc2nc(NC(C)C)nc(Oc3ccc(=O)n(C)n3)n2)c1	15	23566*	4	9	-4	0.7	1
O=C(NCCc1ccccc1)C(=O)NCCC1CCCCN1S(=O)(=O)c1cccs1 (centres undefined)	-17	6429	x	x	x	x	-4
CCn1c(SCC(=O)Nc2ccc(OC)c(OC)c2)nnc1-c1ccco1	-18	3568	6	-2	12	3.7	-4
CCOc1ccc(-n2c(SCC(=O)Nc3nccs3)nc3c(c2=O)SCC3)cc1	-11	5560	-5	-3	15	22	-4
CCOCCCNC(=O)C(C)NS(=O)(=O)c1ccc(C)cc1 (centres undefined)	-20	4279	8	8	7	3.1	-3
COc1ccc2ccccc2c1CNCc1ccc(C)cc1	-30	3791	13	12	-3	5.6	5
O=C(CN1c2cccc3cccc(c23)S1(=O)=O)NCc1ccc(Cl)cc1	-22	3319	11	4	-4	3.2	x
CS(=O)(=O)N(CC(=O)N1CCCCCC1)c1cccc(Br)c1	-31	4402	16	11	-5	7.5	-4
C(=Nc1nc2ccccc2n1Cc1ccccc1)c1cccs1	x	x	2	4	1	2.9	x
CCOC(=O)c1c(C)n(Cc2ccc3c(c2)OCO3)c2ccc(O)cc12	-4	u	13	13	-11	11	-4
Cc1cccn2c(=O)c(/C=C(\C#N)C(=O)NC3CCS(=O)(=O)C3)c(N3CCC(C)CC3)nc12 (centres undefined)	-25	9504	x	x	x	x	-7
Cc1ccc(NC(=O)COc2cccc3ccccc23)c(O)c1	-6	3105	-4	-2	-13	8.3	x
CC1Cc2ccccc2N1C(=O)c1ccc(N2CCCCC2)c([N+](=O)[O-])c1 (centres undefined)	-2	9147	8	2	-9	2.3	9
CC(=O)c1c2c3c(c(Br)ccc3n(C)c1=O)C(=O)c1ccccc1-2	5	5341	x	x	x	x	-5
CC(=O)c1c(COC(=O)c2cccnc2)nc2ccccc2[n+]1[O-]	-16	4014	x	x	-1	1.2	-7
COc1ccc(OCC(=O)Nc2c3c(nn2-c2ccc(OC)cc2)CS(=O)(=O)C3)cc1	-4	4577	16	-41	7	4.7	-17
CC(=O)c1cc(F)c(N2CCCC2)cc1C	-11	5173	x	x	8	9.5	1
CCN(CCO)c1nc(NCc2ccccc2)c2cnn(C)c2n1	6	5079	2	2	-5	-0.1	-8
C=CCSC1=C(C#N)C2(CCCCC2)C(C#N)C(=O)N1 (centres undefined)	-14	19902*	4	13	3	10	x
COc1ccc(C(=O)N/N=C2\CCc3ccccc32)cc1OC	-11	4373	x	x	x	x	-5
COCCN(C(=O)COC(=O)c1ccccc1Oc1ccccc1)c1c(N)n(Cc2ccccc2)c(=O)[nH]c1=O	-10	u	0	-6	7	1.7	1
CSc1ccc(-c2cc(=O)c3ccccc3o2)cc1	-120	7132	4	7	-21	22	-2
CC1CCN(CCCNC(=O)CCCNC(=O)Cn2cnc3sc4c(c3c2=O)CCCC4)CC1	-3	3170	18	-5	4	-1.0	2
CCC(=O)N1CCc2cc(S(=O)(=O)CCC(=O)Nc3ccc(C)cn3)ccc21	-16	2254	16	9	8	0.6	4
Cc1cccc(OCC2=N/C(=C\N(C)C)C(=O)O2)c1	9	4848	x	x	-4	2.5	3
CCOC(=O)CSc1nsc(SCC(=O)OCC)c1C#N	-14	3266	x	x	17	5.6	-1
CCOC(=O)NC1(Nc2ccc(C)cc2)Oc2ccccc2O1	-37	2093	7	3	9	2.9	-11
Cc1cc([N+](=O)[O-])ccc1-c1ccc(/C=N/NC(=O)c2ccc(Br)o2)o1	3	u	x	x	x	x	0
Nc1n[nH]c(N)c1N=Nc1ccccc1F	1	3594	5	6	5	4.3	3
CSc1ccc(C=NNC(=O)c2sccc2C)cc1	x	x	10	3	2	3.8	x
COc1ccc(-n2c(C)cc(C(=O)Cn3c(NCCO)nc4ccccc43)c2C)cc1	2	4548	2	5	-2	-0.5	-1
CCOC(=O)c1c(NC(=O)c2ccccc2C(=O)O)sc2c1CCC2	-28	4117	4	-5	4	11	-5
O=C(Cc1ccc2ccccc2c1)Nc1ccccc1Br	-25	4622	9	10	8	0.9	-2
COCCn1c(=O)[nH]c2cc(C(=O)NCCCN3CCN(c4ccc(F)cc4)CC3)ccc2c1=O	-37	2969	7	11	10	3.6	3
Cc1ccnc(NC(=S)NC(=O)/C=C/c2ccc(Cl)cc2)c1	-36	2420	x	x	x	x	1
O=C1NC(=O)/C(=C\c2ccccc2Oc2ccc(F)c(F)c2)S1	-16	2692	x	x	60	64	-12
O=S(=O)(Nc1nc2ccccc2nc1OCC(F)(F)F)c1cccs1	-16	4737	2	-4	-2	11	1
CCN(CC)S(=O)(=O)c1cccc(NC(=O)C2SC(=Nc3ccc(C)cc3C)C(C(=O)NC(C)COC)=C2N)c1 (centres undefined)	-15	3925	x	x	-5	-4.3	-1
Cc1ccc(S(=O)(=O)N(C)C)cc1NC(=S)NC(C)CCCC(C)C (centres undefined)	-14	2456	14	5	3	4.7	10

# Carrying on.
SMILES	PrP 5UTR inh	Autofluor counter	Mtb hypoxia rep	Mtb hypoxia rep growth	Sa ugtP lethal	Sa RN4220 lethal	BJeLR viability
Cc1cc(Cl)ccc1OCC(=O)OC(C)C(=O)NC(N)=O (centres undefined)	4	8940	-16	-4	-2	2.8	12
CCO[C@H]1OC(C(=O)N2CCCCCCC2)=C[C@@H](c2csc3ccccc23)[C@@H]1CCCO	-16	4866	x	x	x	x	9
COCCNC(=O)COC(=O)C1=Cc2ccccc2OC1	-28	4106	-5	3	3	2.3	x
O=C(C[n+]1ccccc1)NN=Cc1ccc(Cl)cc1	x	x	3	-18	2	2.2	x
O=C(Cn1ncc2c(=O)oc3ccccc3c21)N1CCN(c2ccccn2)CC1	-7	4373	x	x	3	-1.5	-1
CC(C)Cc1nnc(NC(=O)c2cccc(S(=O)(=O)N3CCN(C)CC3)c2)s1	-7	5685	6	-8	4	0.9	-7
CCOCCCNC(=O)C1CCN(S(=O)(=O)c2ccc(C)cc2)CC1	-13	11206	4	4	4	2.4	-6
O=c1c2ccccc2c(-c2ccccc2)nn1Cc1ccccc1	-15	2504	7	5	6	4.2	-10
CN(C)C(=O)N1CCC(C(=O)NCc2ccc(F)cc2Cl)CC1	-12	9051	-1	9	4	4.3	4
Cc1cc(C)c(C(=O)CSc2nnc(C)s2)c(C)c1	18	3267	16	7	8	3.9	7
Cc1cc(S(=O)(=O)Nc2ccc3c(c2)n(C)c(=O)n3C)ccc1F	-33	4767	7	7	4	6.4	8
COc1ccccc1C(=O)Nc1ccc(C)cc1C(=O)c1ccccc1	-6	2389	11	7	93*	-3.1	-5
CC1CCCCC12NC(=O)N(CC(=O)Nc1nccs1)C2=O (centres undefined)	-16	4187	4	4	4	6.3	x
Clc1ccc(-c2ccc(CNCC3CCCO3)o2)cc1 (centres undefined)	-22	3916	12	8	5	-0.5	-5
O=C(CSc1ncnc2c1cnn2-c1ccccc1Cl)N1CCN(C(=O)c2ccco2)CC1	-18	4032	x	x	-12	-2.8	8
